# Rce1 inhib – blocks yeast Ras-converting enzyme; Q03530; yeast membranes, quenched prenylated peptide cleavage fluorescence; calls only; hit rate 0.27% among 290,000;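 active = fall in fluorescence gain of 50% or more versus controls, with final raw signal at or below 3038400; inconclusive = same 50% fall but final raw signal above 3038400; inactive = fall in fluorescence gain under 50%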;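 also: plate controls were neutral control wells for no effect and wells lacking membranes for full effect; tested at 10 µM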
# Target sequence (Q03530 whole entry, looked up): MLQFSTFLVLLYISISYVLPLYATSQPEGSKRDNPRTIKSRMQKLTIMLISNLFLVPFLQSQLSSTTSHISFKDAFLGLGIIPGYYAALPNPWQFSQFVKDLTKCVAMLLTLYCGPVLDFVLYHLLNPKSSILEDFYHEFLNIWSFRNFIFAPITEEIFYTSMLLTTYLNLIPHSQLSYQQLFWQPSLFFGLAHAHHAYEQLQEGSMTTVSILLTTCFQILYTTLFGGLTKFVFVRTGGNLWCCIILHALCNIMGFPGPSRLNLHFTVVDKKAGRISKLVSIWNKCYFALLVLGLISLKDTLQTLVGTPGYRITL
# eIF4H inh – inhibitors of RNA binding by human eIF4H. Q15056. eIF4H fluorescence polarization binding assay. inhibition, % at 35 µM. hit rate 0.94% among 290,000;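 active = 50% or more with normal probe brightness, or confirmed in later tests; inconclusive = above 50% with abnormal brightness, or retests that disagree; inactive = below 50% or failed in later tests; about a fifth of its hits are not listed in these tables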;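 also: calls also rest on retests at 20 µM and on dose response follow-up; 0% = protein and probe with vehicle and 100% = probe without protein; strong numbers were not always called active; many hits fall short of the cut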
# UUG fidelity – modulators of start codon recognition fidelity in yeast; hit rate 0.13% among 350,000; S. cerevisiae UUG-firefly luciferase reporter, luminescence/redox ratio; AID 602363; activity score, % at 18.7 µM;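 active = replicate mean at a twofold rise or more, about +100% in these data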;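 also: firefly luciferase made from a UUG start codon reports start codon fidelity; reporter light over untreated wells divided by growth signal over untreated wells; some hits fall short of that in this replicate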
# HIV Env fusion – blocks HIV Env-driven cell-cell fusion; hit rate 1.1% among 360,000; inhibition, % at 12.3 µM; HeLa-JRFL Env/CEM21 cell fusion, luciferase; AID 651610;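 active = mean replicate inhibition score of at least 50 and every replicate individually at or above 50; inconclusive = only one of the two criteria met; inactive = mean below 50 and not all replicates reaching 50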;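 also: 0% = plate neutral controls and 100% = maraviroc near 300 nM; one replicate is shown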
# MT1-MMP act inh – blocks activation of human MT1-MMP. P50281. GFP/RFP ratio change, % at 20 µM. HT1080 RFP-PRO-GFP cells, GFP/RFP ratio fluorescence, overnight; percent of plate control window, DMSO zero. AID 651647. hit rate 0.061% among 360,000;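 active = GFP/RFP ratio change of at least 30% with cell ATP level not reduced by more than half and red fluorescence within 50% of control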; also: strong numbers were not always called active
#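 Assay system: HT1080 RFP-PRO-GFP cells. Benchmarks: DMSO vehicle wells and RFP-L50D-GFP reporter cell wells. Times: overnight cell settling, then overnight compound exposure, 37 °C, 5% CO2. Compound: 20 µM single dose, 1% DMSO. Read-out basis: GFP/RFP fluorescence ratio.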
# CSC inhib – cancer stem cell inhibition; cancer stem cell-like cells viability, luminescence; inhibition, % at 7.5 µM; hit rate 1.1% among 300,000;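 active = mean at 75% or more and at least half the replicates too; inconclusive = mean and replicates disagree; tested in HMLE shEcad cells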;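 also: 0% = median of negative and 100% = median of positive control wells; the first replicate is given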
# PABP polyA inh – blocks human PABP binding to poly(A) RNA; P11940; fluorescence polarization; inhibition, % at 35 µM; hit rate 1% among 290,000; AID 2014;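 active = 50% or more with normal probe brightness, or confirmed in later tests; inconclusive = above 50% with abnormal brightness, or retests that disagree; inactive = below 50% or failed in later tests; about a fifth of its hits are not listed in these tables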;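 also: calls also rest on retests at 20 µM and on dose response follow-up; controls were probe without protein and protein plus probe with vehicle; some compounds called inactive have numbers as strong as hits; many hits fall short of the cut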
# Target sequence (P11940 whole entry, looked up): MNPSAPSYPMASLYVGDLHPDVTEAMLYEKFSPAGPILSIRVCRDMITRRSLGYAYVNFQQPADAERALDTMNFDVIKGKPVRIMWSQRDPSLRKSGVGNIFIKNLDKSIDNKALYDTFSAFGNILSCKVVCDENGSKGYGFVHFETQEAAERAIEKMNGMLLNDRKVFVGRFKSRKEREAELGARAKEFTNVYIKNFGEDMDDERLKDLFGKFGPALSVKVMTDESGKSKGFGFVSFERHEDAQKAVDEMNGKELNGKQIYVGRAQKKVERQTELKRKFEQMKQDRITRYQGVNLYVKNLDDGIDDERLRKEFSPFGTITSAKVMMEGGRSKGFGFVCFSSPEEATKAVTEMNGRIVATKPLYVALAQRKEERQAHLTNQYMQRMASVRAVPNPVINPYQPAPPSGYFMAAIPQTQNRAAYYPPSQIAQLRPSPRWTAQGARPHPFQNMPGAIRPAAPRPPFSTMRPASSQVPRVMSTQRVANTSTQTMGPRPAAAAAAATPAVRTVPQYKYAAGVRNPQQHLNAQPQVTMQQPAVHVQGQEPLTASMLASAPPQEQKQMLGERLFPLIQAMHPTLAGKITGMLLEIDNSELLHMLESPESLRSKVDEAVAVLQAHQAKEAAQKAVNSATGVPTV
# MT1-MMP act inh RFP – recorded beside MT1-MMP act inh, whose call it bears; RFP signal change, %; measured here: RFP expression control read;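 0 = vehicle wells; hits needed this value within 50% of zero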
# * marks the source's active call; other numbers are inactive results; i = inactive; ? = inconclusive; / = no result given; + = active, no number. The list is partial; count on the stated rates, not on these rows.
SMILES,Rce1 inhib,eIF4H inh,UUG fidelity,HIV Env fusion,MT1-MMP act inh,MT1-MMP act inh RFP,CSC inhib,PABP polyA inh
CCOC(=O)N1CCC(N2Cc3cccc(C(=O)Nc4ccccc4OC)c3C2=O)CC1,i,3,-14,6,0,-1,6,15
Cc1ccc(C)c(NC(=O)C2CC(Cl)=CCC2C(=O)O)c1 (centres undefined),i,-3,2,-33,0,2,1,8
Cc1ccc(/C(O)=C2/C(=O)C(=O)N(CCN3CCOCC3)C2c2cccs2)cc1 (centres undefined),i,-1,-14,/,3,8,3,-4
S=C1NC(c2ccccc2)=CC(c2ccccc2)N1 (centres undefined),i,2,/,-43,2,-1,-1,-2
COc1cc(OC)nc(Nc2nc(C(N)Cc3ccccc3)cs2)n1 (centres undefined),/,/,-13,-50,0,6,/,/
Cc1ccc(NC(=O)C(c2ccc(Cl)cc2Cl)N2CCCC2)cc1 (centres undefined),i,-2,/,-32,-11,-9,16,14
CC(C)CNS(=O)(=O)c1ccc(CCC(=O)NC2CCCCC2)cc1,i,/,22,16,6,-1,6,/
CCN1C(=O)c2cccc3cccc1c23,i,1,-10,/,-4,-1,/,6
O=C(CN1CCCC1)Nc1ccc(Br)cc1,i,-5,/,-6,2,3,1,16
Cc1nnc(SCC(=O)Nc2ccc(Cl)cn2)s1,i,-8,/,13,0,2,-8,0
Cc1ccc2oc(C(=O)Nc3nnc(C)s3)c(C)c2c1,i,7,-15,-146,7,7,-4,0
O=C(CSc1nnc(CN2CCOCC2)n1-c1ccc(Cl)cc1)Nc1cc(Cl)ccc1O,i,3,13,/,3,0,3,-3
Cc1ccsc1C(=O)OCC(=O)Nc1ccc(Cl)cn1,/,/,-8,/,-3,3,-6,/
COc1ccc(N(C)C(=S)Nc2ccc3nc(C)c(C)nc3c2)cc1,i,3,-15,13,-1,-1,-3,-4
S=c1[nH]nc(-c2cccs2)n1/N=C/c1cn(-c2ccccc2)nc1-c1ccc(Cl)cc1,i,46,5,17,3,-5,15,-6

# Brought forward from above: 2 compounds; new compounds follow.
SMILES,Rce1 inhib,eIF4H inh,UUG fidelity,HIV Env fusion,MT1-MMP act inh,MT1-MMP act inh RFP,CSC inhib,PABP polyA inh
COc1ccc(N(C)C(=S)Nc2ccc3nc(C)c(C)nc3c2)cc1,i,3,-15,13,-1,-1,-3,-4
S=c1[nH]nc(-c2cccs2)n1/N=C/c1cn(-c2ccccc2)nc1-c1ccc(Cl)cc1,i,46,5,17,3,-5,15,-6
CN(C)S(=O)(=O)c1ccc(C(=O)NC(=O)CSc2ccccc2)cc1,i,8,/,0,6,9,2,5
CC(C)(C)c1ccc(CS(=O)CC(O)CO)cc1 (centres undefined),i,4,/,16,-1,7,-11,10
CSc1cccc(NC(=O)Cn2cnc(S(=O)(=O)N3CCCC3)c2)c1,i,-4,-11,6,4,-2,-11,10
CCc1cc(C(c2ccc(OC)c(OC)c2)N2CCOCC2)c(NC(=O)c2ccccc2)s1 (centres undefined),i,2,/,5,-8,-7,14,-2
COc1ccc(/C=N/n2cnc3c([nH]c4ccc(Br)cc43)c2=O)cc1CN1CCOCC1,i,2,/,/,/,/,23,-11
O=C(Cc1ccccc1F)OCC(=O)N1CCN(C(=O)c2ccco2)CC1,i,3,/,1,3,5,-3,-2
COc1cc(C(=O)OCC(=O)Nc2ccc(SC(F)F)cc2)cc(OC)c1OC,+,0,5,13,0,-1,/,-5
Nc1ccc2nc(CCCCCCc3nc4ccc(N)cc4[nH]3)[nH]c2c1,i,35,-6,-3,-1,0,-11,-2
Cc1cc(N2CCCC2)ccc1NC(=O)CN1C(=O)NC(C)(c2ccccc2)C1=O (centres undefined),i,12,10,-36,-1,-1,-7,3
c1ccc2c3c(c(CN4CCCC4)cc2c1)COC3,i,-3,-35,11,0,3,-10,-1
COc1ccc(-c2ccc(S(=O)(=O)NCC3CCCO3)cc2)cc1 (centres undefined),i,-4,/,/,3,-7,5,1
O=C(c1cccs1)N1CCN(c2nc3ccc([N+](=O)[O-])cc3s2)CC1,i,/,/,/,9,1,-11,/
CCc1ccc(CN(C)CC(=O)Nc2sccc2C#N)cc1,i,14,-9,-18,-9,-8,2,12
O=C(Nc1ccc(Cl)c(Cl)c1)Nc1ccccc1C(=O)O,i,2,-49,-101,-5,-3,26,-2
COc1ccc(C(=O)Nc2ncc3c(n2)CC(c2ccco2)CC3=O)cc1 (centres undefined),i,35,2,/,2,3,-5,10

# Sorted by count of non-hydrogen atoms (largest number first): five of the compounds above
SMILES,Rce1 inhib,eIF4H inh,UUG fidelity,HIV Env fusion,MT1-MMP act inh,MT1-MMP act inh RFP,CSC inhib,PABP polyA inh
COc1cc(C(=O)OCC(=O)Nc2ccc(SC(F)F)cc2)cc(OC)c1OC,+,0,5,13,0,-1,/,-5
Nc1ccc2nc(CCCCCCc3nc4ccc(N)cc4[nH]3)[nH]c2c1,i,35,-6,-3,-1,0,-11,-2
CN(C)S(=O)(=O)c1ccc(C(=O)NC(=O)CSc2ccccc2)cc1,i,8,/,0,6,9,2,5
O=C(Nc1ccc(Cl)c(Cl)c1)Nc1ccccc1C(=O)O,i,2,-49,-101,-5,-3,26,-2
c1ccc2c3c(c(CN4CCCC4)cc2c1)COC3,i,-3,-35,11,0,3,-10,-1

# Later entries
SMILES,Rce1 inhib,eIF4H inh,UUG fidelity,HIV Env fusion,MT1-MMP act inh,MT1-MMP act inh RFP,CSC inhib,PABP polyA inh
CC(C)(C)NC(=O)Nc1ccc(Cn2cc(C(F)(F)F)ccc2=O)cc1,i,2,/,4,2,3,-2,-9
NC(=O)c1ccccc1NC(=O)/C=C/c1ccccc1,i,-2,-8,-69,0,-1,8,5
COC(=O)c1ccc(CSc2nnc(Nc3ccccc3OC)s2)o1,i,-4,/,-92,/,/,33,-10
CC(C)c1ccc2oc(-c3ccc(NC(=O)c4ncn[nH]4)cc3)nc2c1,i,10,/,/,11,5,49,-8
CCOC(=O)N1CCN(CC(O)COc2ccccc2C(C)CC)CC1 (centres undefined),i,-2,-1,/,-2,4,5,26
Cc1ccc(-n2ncc3c(=O)n(CC(N)=O)cnc32)cc1C,i,1,-2,15,-2,3,-12,13
Nc1nnc(SCC(=O)Nc2ccc(N3CCOCC3)cc2)s1,i,/,/,2,2,0,7,/
N#C/C(=C\c1ccc(O)c(O)c1)C(=O)N1CCc2ccccc21,/,/,-2,-41,-28,-14,34,/
COc1ccc(C(O)P(=O)(OCC(C)C)c2ccc(N(C)C)cc2)c(OC)c1 (centres undefined),i,-7,-8,11,-4,1,5,-9
Fc1ccc(CSc2nncn2NC/C=C/c2ccccc2)cc1,i,-2,-27,/,0,-3,-8,-2
Cc1cc(C(=O)Cn2nc(C(=O)O)c3ccccc3c2=O)c(C)n1C1CC1,i,-8,/,-8,/,/,4,6
Cn1cccc1CNC(=S)Nc1ccccc1Cl,i,-2,/,-11,-1,5,-3,41
COc1cccc(OCCn2cc(C=O)c3ccccc32)c1,i,4,-3,0,7,-14,2,1
Cc1ccccc1OCCC(=O)OCC(=O)NC1CCCCC1,i,/,-4,/,1,1,-4,/
O=[N+]([O-])c1cc(Cl)cc(/C=N/NC(=S)Nc2ccc(S(=O)(=O)N3CCOCC3)cc2)c1O,/,46,-39,-3,-9,-6,23,46
COc1ccc(/C=N/NC(=O)c2cccc(OC(F)(F)C(F)F)c2)cc1O,i,-1,/,11,9,5,/,7
Cc1ccc(S(=O)(=O)Nc2ccc3c(c2)CCC3)cc1C,i,-4,8,16,-2,-5,-1,6
O=C(Nc1ccc([N+](=O)[O-])c(NC(=O)c2cccnc2)c1)c1cccnc1,i,/,-22,2,2,4,-8,/
COC(=O)c1ccc(NS(=O)(=O)c2ccc(-c3cc(C)no3)s2)cc1,i,-6,/,-3,-3,1,-11,2
O=C(O)/C=C/C(=O)Nc1ccc(-n2ccc(C(F)(F)F)n2)cc1,i,1,/,-4,0,-2,-12,6
CCCCn1c(N)c(N(CC)C(=O)c2ccc(-c3ccc(Cl)cc3)o2)c(=O)[nH]c1=O,/,/,-9,-36,0,-1,/,/
O=C(NC1CCCC1)c1ccc(CS(=O)(=O)c2ccc(Cl)cc2)o1,i,-3,0,8,3,2,-13,1
CC(C)Sc1nnc(CNC(=O)C23CC4CC(CC(C4)C2)C3)n1C1CCCCC1,i,-13,/,13,-5,-5,43,6
COc1ccc(CNC(=O)COC(=O)Cc2ccsc2)cc1,i,-5,-17,7,-5,9,-7,11
COc1ccc(N2CCN(C(=O)CN(c3cccc(Br)c3)S(C)(=O)=O)CC2)cc1,i,2,-9,/,0,-4,-7,-6
O=C(Nc1ccc(N2CCOCC2)c(Cl)c1)c1ccc(-n2cnnc2)cc1,i,6,-7,?,0,3,1,9
CCOC(=O)c1c(C)[nH]c(C(=O)N/N=C/c2ccc(OC)c(OC)c2)c1C,i,-9,6,-117,-7,-11,44,12
CCCCN1C(=O)NC(NC(=O)C2CC2)(C(F)(F)F)C1=O (centres undefined),/,-6,-19,27,4,4,9,4
Cc1ccc(S(=O)(=O)NCCc2nnc3ccc(SCc4cccnc4)nn23)cc1,i,6,/,14,-8,-2,2,2
N#Cc1cc(N)ccc1Sc1ccccc1,i,-4,-20,17,3,6,-7,9

# Overlap with the part before: 2 entries, then new ones.
SMILES,Rce1 inhib,eIF4H inh,UUG fidelity,HIV Env fusion,MT1-MMP act inh,MT1-MMP act inh RFP,CSC inhib,PABP polyA inh
Cc1ccc(S(=O)(=O)NCCc2nnc3ccc(SCc4cccnc4)nn23)cc1,i,6,/,14,-8,-2,2,2
N#Cc1cc(N)ccc1Sc1ccccc1,i,-4,-20,17,3,6,-7,9
COc1ccc(C(=O)Nc2ccc(NC(=O)c3cc(OC)c(OC)c(OC)c3)cn2)cc1,i,0,-7,16,3,1,0,12
CCCSc1ccccc1C(=O)N1CCN(C(=O)c2ccco2)CC1,i,1,5,8,3,6,-14,1
CCCc1ccc(S(=O)(=O)NCCc2ccncc2)cc1,i,-2,-8,48,4,-10,-1,-1
CCn1c(CCC(=O)Nc2cc(F)ccc2C)nc2cc(S(=O)(=O)N(C)C)ccc21,i,0,0,-1,-1,4,13,1

# Assay outcomes (PubChem)
